Screens from PubChem BioAssay.
VACV Venus inh = inhibitors of vaccinia virus (Venus reporter); Potency, µM (doses to about 36.5 µM), inactives show top-dose activity change, negative = inhibition, most hits filed as inhibitors; hit rate 0.46% among 330,000; AID 720580; Vaccinia virus Venus reporter expression, fluorescence; active means well fitted inhibition curve with a large enough effect; inconclusive means small, poorly fitted or top-dose-only effect; inactive means no such curve, though single readings can be large or run the other way; tested in A549 cells; note: nearly all actives have a fitted effect of over 30% in size; inactives centre near -10
Vaccinia mCherry = vaccinia inhibition (mCherry reporter). hit rate 0.63% among 310,000. AID 720579. Vaccinia virus mCherry reporter infection, fluorescence; about a quarter of the inactives have no number. Potency, µM (doses to about 36.5 µM), inactives show at the highest dose activity change, negative = inhibition, usual class: inhibitors; active = well fitted inhibition curve with a large enough effect; inconclusive = small, poorly fitted or top-dose-only effect; inactive = no such curve, though single readings can be large or run the other way; tested in A549 cells; note: nearly all actives have a fitted effect of over 35% in size; inactives centre near -10
* hit, by the source's call; [ ] = dose if it differs, or a comment. % is set by controls: 0 for no effect and ±100 for the full control effect; potency is the fitted concentration of half-maximal effect. Not a hit list; any-hit rate near 0.82%.

The opening 5 compounds, ahead of the listing:
O=C(Nc1cccc(F)c1)c1ccc(S(=O)(=O)N2CCCCC2)cc1 was read as VACV Venus inh -24.9% and Vaccinia mCherry -11.6%.
Screening CCOC(=O)c1ccccc1NC(=O)CSc1ccc(-c2sc(-c3ccccc3)nc2C)nn1 returned VACV Venus inh -18.8% and Vaccinia mCherry inactive.
For O=C(COC(=O)c1ccccc1Nc1ccccc1)NCc1ccco1 the results were VACV Venus inh -6.0% and Vaccinia mCherry -11.9%.
For CCC(Sc1nc2c(cnn2-c2ccccc2)c(=O)[nH]1)C(=O)OC (configuration not stated) the results were VACV Venus inh -15.6% and Vaccinia mCherry inactive.
`Cc1cccc(C(=O)N2CCC(=O)N(C(COCc3cccc(Cl)c3)Cc3ccccc3)CC2)c1` (configuration not stated) gave VACV Venus inh -25.6% and Vaccinia mCherry -24.1%.

Results, from the start:
O=C(Nc1cccc(F)c1)c1ccc(S(=O)(=O)N2CCCCC2)cc1 was read as VACV Venus inh -24.9% and Vaccinia mCherry -11.6%.
Screening CCOC(=O)c1ccccc1NC(=O)CSc1ccc(-c2sc(-c3ccccc3)nc2C)nn1 returned VACV Venus inh -18.8% and Vaccinia mCherry inactive.
For O=C(COC(=O)c1ccccc1Nc1ccccc1)NCc1ccco1 the results were VACV Venus inh -6.0% and Vaccinia mCherry -11.9%.
For CCC(Sc1nc2c(cnn2-c2ccccc2)c(=O)[nH]1)C(=O)OC (configuration not stated) the results were VACV Venus inh -15.6% and Vaccinia mCherry inactive.
`Cc1cccc(C(=O)N2CCC(=O)N(C(COCc3cccc(Cl)c3)Cc3ccccc3)CC2)c1` (configuration not stated) gave VACV Venus inh -25.6% and Vaccinia mCherry -24.1%.
Screening O=C(CSc1n[nH]c(-c2cccs2)n1)N1CCN(S(=O)(=O)c2ccc3ccccc3c2)CC1 returned VACV Venus inh inconclusive and Vaccinia mCherry -26.9%.
CCOc1ccccc1CN1CCNC(=O)C1CC(=O)N(C)Cc1nonc1C (configuration not stated) was read as VACV Venus inh -10.7% and Vaccinia mCherry -12.4%.
For O=C(c1cccc(Cl)c1)N1CCN(c2ccccn2)CC1 the results were VACV Venus inh -12.1% and Vaccinia mCherry -15.6%.
`C=CCn1c(SCC(=O)NCCOC)nc2scc(-c3ccco3)c2c1=O` gave VACV Venus inh 4.4% and Vaccinia mCherry -5.3%.
For CCCn1cc(S(=O)(=O)c2ccc(OC)cc2)c(=O)c2cc(F)c(N3CCCC(C)C3)cc21 (configuration not stated) the results were VACV Venus inh -19.8% and Vaccinia mCherry -12.6%.
Screening O=C1N=C(N2CCCCC2)SC1=C1CCCCC1 returned VACV Venus inh -27.1%.
`CCc1ccccc1NS(=O)(=O)c1ccc2[nH]cc(C(=O)NCc3ccco3)c(=O)c2c1` gave VACV Venus inh -6.5% and Vaccinia mCherry inactive.
CCOc1ccc(Nc2c(S(=O)(=O)c3ccc(Cl)cc3)cnc3ccc(OCC)cc23)cc1 was read as VACV Venus inh -17.4% and Vaccinia mCherry -26.8%.
For CCOc1ccccc1C(=O)Oc1cc(C)[nH]c(=O)c1[N+](=O)[O-] the results were VACV Venus inh 1.3% and Vaccinia mCherry -3.7%.
For CCOC(=O)Cn1ccc(NC(=O)COc2ccc(F)cc2F)n1 the results were VACV Venus inh 2.8% and Vaccinia mCherry inactive.
`c1ccc(CCNc2nc(-c3ccccn3)nc3ccccc23)cc1` gave VACV Venus inh -16.4% and Vaccinia mCherry -22.9%.
For COc1ccc(-c2nnc3ccc(SCC(=O)N4CCCCC4)nn23)cc1OC the results were VACV Venus inh -9.8% and Vaccinia mCherry -9.3%.
Screening Cc1nc(C)c(/C(O)=C/c2nc3ccccc3oc2=O)s1 returned VACV Venus inh -14.2% and Vaccinia mCherry -19.5%.
C=CCNC(=S)N1CCN(CCNC2=CC(=O)CC(C)(C)C2)CC1 was read as VACV Venus inh -1.8% and Vaccinia mCherry -9.8%.
`CC1=C(C(=O)Nc2ccc(F)cc2F)C2(CCN(C(C)C)CC2)OC1=O` gave VACV Venus inh 7.5% and Vaccinia mCherry -7.0%.
For Cc1ccc(-c2nc3ncccc3o2)cc1NC(=O)c1ccc(-c2cccc(Cl)c2C)o1 the results were VACV Venus inh inconclusive and Vaccinia mCherry inconclusive.
`COc1ccc(OC)c(NC(=O)CCc2nc(-c3ccc(C)cc3)no2)c1` gave VACV Venus inh -9.2% and Vaccinia mCherry -4.9%.
Screening CC(=O)c1ccc(C(=O)Nc2ccc(N3CCOCC3)cc2)cc1 returned VACV Venus inh -5.8%.
`CC(C)=CCc1c([C@@H]2CCc3ccc(O)cc3O2)cc2c(c1O)OC(C)(C)C=C2` gave VACV Venus inh -0.4% and Vaccinia mCherry -5.6%.
Screening O=CNn1cnc2c(oc3nc(-c4ccccc4)cc(-c4ccco4)c32)c1=O returned VACV Venus inh -2.3% and Vaccinia mCherry 2.2%.
Screening CC(C)(C)SCCNC(=O)COc1ccc(Cl)cc1 returned VACV Venus inh 1.4% and Vaccinia mCherry inactive.
O=C1/C(=C/c2cccnc2)SC(=S)N1Nc1ccccc1 was read as VACV Venus inh -4.6% and Vaccinia mCherry inactive.
Screening CSc1ccccc1NC(=O)COc1ccc(Cl)cc1Cl returned VACV Venus inh -17.4% and Vaccinia mCherry -6.5%.
Screening CCN1CCN(C(=O)Nc2ccccc2OC)CC1 returned VACV Venus inh -8.2% and Vaccinia mCherry inactive.
`O=S(=O)(/N=C(/Sc1ccccc1)c1ccccc1)c1ccc(Cl)cc1` gave VACV Venus inh -18.6% and Vaccinia mCherry -14.1%.
COc1ccc(-n2c(=O)c3c4c(sc3n(CC(=O)C(C)(C)C)c2=O)CCCC4)c(OC)c1 was read as VACV Venus inh -23.0% and Vaccinia mCherry inactive.
For O=C(CCc1ccccc1)NC(=S)Nc1ccc(S(=O)(=O)N2CCOCC2)cc1 the results were VACV Venus inh -16.7% and Vaccinia mCherry inactive.
For CCN(CC)S(=O)(=O)c1ccc(C)c(NC(=O)Cn2c(=O)cnc3ccccc32)c1 the results were VACV Venus inh -4.9% and Vaccinia mCherry inactive.
For COc1cc(=O)n2c(c1C(=O)NC(C)c1ccco1)CCN(Cc1ccnc3ccccc13)CC2 (configuration not stated) the results were VACV Venus inh -3.4% and Vaccinia mCherry -7.2%.
`CC(=O)NC(c1ccccc1)c1nc(-c2cccc(F)c2)cs1` (configuration not stated) gave VACV Venus inh -13.4% and Vaccinia mCherry inactive.
`COC(=O)c1ccc(CN2CCC3(CCC(CNC(=O)c4ccco4)O3)CC2)cc1` (configuration not stated) gave VACV Venus inh -18.7% and Vaccinia mCherry -1.5%.
CCCCn1c(N)c(N(CCOC)C(=O)c2ccc(-n3c(C)ccc3C)cc2)c(=O)[nH]c1=O was read as VACV Venus inh -11.6% and Vaccinia mCherry inactive.
Screening CCOC(=O)c1cc(-c2ccc(F)cc2)n(CC(=O)NCc2ccc(OC)cc2)c1C returned VACV Venus inh inconclusive and Vaccinia mCherry inconclusive.
For O=C(COc1coc(CN2CCN(c3ccccc3)CC2)cc1=O)Nc1ccc(F)cc1 the results were VACV Venus inh -7.3% and Vaccinia mCherry -12.2%.
COc1ccc(C(CC(=O)N2CCOCC2)c2c(OC)cc(OC)c3ccc(=O)oc23)cc1 (configuration not stated) was read as VACV Venus inh -2.6% and Vaccinia mCherry -2.6%.
Nc1cc(=O)nc(SCC(=O)Nc2ccccc2)n1CCc1ccccc1 was read as VACV Venus inh 13.2% and Vaccinia mCherry 13.6%.
Screening O=C(NC1CC1)c1ccccc1 returned VACV Venus inh -14.4% and Vaccinia mCherry -13.2%.
`COc1cc(OC)c(NC(=O)Cc2ccc(OC)c(S(=O)(=O)N3CCOCC3)c2)cc1Cl` gave VACV Venus inh -15.4% and Vaccinia mCherry inactive.
Screening O=C(CCS(=O)(=O)c1ccc(Br)s1)Nc1c(F)cccc1F returned VACV Venus inh -18.7% and Vaccinia mCherry -13.9%.
For CCOC(=O)COc1ccc2c3c(c(=O)oc2c1)CCCC3 the results were VACV Venus inh -14.0% and Vaccinia mCherry inactive.
For Cc1ccc(C)c(-c2cc(C(=O)Nc3cccnc3)c3ccccc3n2)c1 the results were VACV Venus inh -2.1% and Vaccinia mCherry inactive.
For CN(C(=O)c1c[nH]c(=O)cc1C(F)(F)F)c1ccc(Cl)c(Cl)c1 the results were VACV Venus inh 8.4% and Vaccinia mCherry -1.6%.
`COC(=O)c1ccc(NC(=O)CN2C(=O)CC(C)S(=O)(=O)c3ccccc32)cc1` (configuration not stated) gave VACV Venus inh -5.6% and Vaccinia mCherry inactive.
For COC(=O)c1ccc(Cl)cc1NC(=O)NCCc1c(C)nn(C)c1C the results were VACV Venus inh -12.2% and Vaccinia mCherry inactive.
Screening COc1cccc(-c2c(C(=O)N/N=C/c3ccsc3)nnn2-c2nonc2N)c1 returned VACV Venus inh -5.3%[7.34 µM] and Vaccinia mCherry -4.3%[7.34 µM].
For C=CCOc1ccc(CNc2nn[nH]n2)cc1OC the results were VACV Venus inh -14.0% and Vaccinia mCherry inactive.
Screening Cc1ccc(C(=O)N/C(=C\c2ccc(Cl)cc2)C(=O)NCCCN2CCOCC2)cc1 returned VACV Venus inh -7.8% and Vaccinia mCherry -17.2%.
Screening CCCN(CCC)C(=O)C1CCN(c2cc(C)nc3c(-c4ccc(OC)c(OC)c4)c(C)nn23)CC1 returned VACV Venus inh -24.0% and Vaccinia mCherry inconclusive.
For CCN(CC(=O)Nc1c(F)cccc1F)C(=O)c1ccc2c(c1)OCCO2 the results were VACV Venus inh -11.1% and Vaccinia mCherry -13.7%.
For Cc1ccc(C)n1NC(=O)c1ccc(Cl)cc1 the results were VACV Venus inh -16.2% and Vaccinia mCherry -17.0%.
CCOC(=O)c1c(NC(=O)CC)sc(C(C)=O)c1C was read as VACV Venus inh -13.4%.
`CCc1cc2c(C)ccc(C)c2nc1SCC(=O)Nc1c(C)[nH]c(=O)[nH]c1=O` gave VACV Venus inh -10.0% and Vaccinia mCherry -23.7%.
`CC(C)n1cc([C@@H]2C[C@H]3CN(Cc4cccc(Cl)c4)C(=O)[C@]34CCCN24)cn1` gave VACV Venus inh -4.4% and Vaccinia mCherry -1.5%.
Screening Cc1nc(SCc2nc3ccccc3[nH]2)c2oc3ccccc3c2n1 returned VACV Venus inh -19.3%.
For CC(C)OC(=O)C(C)Nc1ccc(F)c(Cl)c1 (configuration not stated) the results were VACV Venus inh -6.6% and Vaccinia mCherry -10.7%.
Screening COc1cc(C)ccc1OCC(=O)OCC(=O)c1[nH]c(C)c(C(C)=O)c1C returned VACV Venus inh -0.4% and Vaccinia mCherry -1.7%.
Screening CCCCNC(=O)c1onc(CSc2ccc(C(C)C)cc2)c1C(=O)O returned VACV Venus inh -14.0% and Vaccinia mCherry inactive.
Screening COc1nc(C)nc2c1ccc1ccccc12 returned VACV Venus inh -1.5% and Vaccinia mCherry inactive.
For NS(=O)(=O)c1cc2c(cc1Cl)NC(C1C[C@H]3C=C[C@@H]1C3)NS2(=O)=O (some centres not stated) the results were VACV Venus inh -14.2% and Vaccinia mCherry inactive.
For CCOc1ccc(OCCC(=O)N(CC)CC(=O)Nc2ccccc2C(F)(F)F)cc1 the results were VACV Venus inh -25.5% and Vaccinia mCherry inconclusive.
`O=C(N/N=C/c1ccc(-c2cccc([N+](=O)[O-])c2)o1)c1ccccc1O` gave VACV Venus inh -8.5% and Vaccinia mCherry inconclusive.
`O=C(Nc1cc(-c2ccccc2)nn1-c1ccccc1)c1ccccc1F` gave VACV Venus inh -18.0% and Vaccinia mCherry inactive.
`O=C(COc1cccc(NC(=O)c2ccco2)c1)c1ccc(F)cc1` gave VACV Venus inh -19.2%.
Screening Cn1cnnc1SCc1ccc(C(=O)NN)cc1 returned VACV Venus inh 0.7% and Vaccinia mCherry -2.5%.
Screening COc1ccccc1NC(=O)c1ccc(N2CC3CC(C2)c2cccc(=O)n2C3)c(NC(=O)c2cccnc2)c1 (configuration not stated) returned VACV Venus inh -5.9% and Vaccinia mCherry -2.0%.
`COCCn1c(SCC(=O)NCc2ccco2)nnc1C(C)C` gave VACV Venus inh -9.6% and Vaccinia mCherry -12.3%.
`O=C(NNC(=S)NC(=O)c1ccc(F)cc1)c1ccncc1` gave VACV Venus inh -1.8% and Vaccinia mCherry inactive.
`COc1ccc(CCN2C(=O)CC(C(N)=O)SC2=Nc2ccccc2)cc1` (configuration not stated) gave VACV Venus inh -24.8% and Vaccinia mCherry inactive.
COC(=O)c1cc(C(=O)OCC(=O)N2c3ccccc3NC(=O)C2(C)C)cc([N+](=O)[O-])c1 was read as VACV Venus inh -7.2% and Vaccinia mCherry -1.7%.
For COCCCNc1oc(-c2ccccc2OC)nc1C#N the results were VACV Venus inh -8.0% and Vaccinia mCherry inactive.
Screening COCCCNC(=O)C(C)n1c2ccccc2c2cnn(C)c(=O)c21 (configuration not stated) returned VACV Venus inh -5.2% and Vaccinia mCherry -7.4%.
`COc1ccc(Cl)c(Cn2c(NCc3ccccn3)nc3c2c(=O)n(C)c(=O)n3C)c1` gave VACV Venus inh -7.8%.
`COCCCn1c(=O)c2ccccc2n(CC(=O)NC2CCCC2)c1=O` gave VACV Venus inh -9.0% and Vaccinia mCherry inactive.
For Cc1cccc(C(=O)OC2CCCN(C)C2)c1C (configuration not stated) the results were VACV Venus inh -22.2% and Vaccinia mCherry -16.8%.
`Cn1c2ccccc2c2cnn(CC(=O)Nc3ccccc3C(F)(F)F)c(=O)c21` gave VACV Venus inh -1.1% and Vaccinia mCherry -8.0%.
For Cc1ccc(C(=O)COC(=O)CNC(=O)CN2C(=O)c3ccccc3C2=O)cc1 the results were VACV Venus inh -15.7% and Vaccinia mCherry -0.3%.
`Nc1c(-c2n[nH]c(=S)n2-c2ccc(Cl)cc2Cl)cnn1-c1ccccc1` gave VACV Venus inh -10.7%[7.34 µM] and Vaccinia mCherry 1.0%[7.34 µM].
